Screens (PubChem)
Sa growth 42C: S. aureus growth inhibition | S. aureus RN4220 growth, OD600, 20 h, 42 °C; hits give low values | relative growth, % (no concentration beside the values) | hit rate 0.53% among 170,000 | AID 720641;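 active = growth at 42 °C up to 50% and 20 or more points under that at 30 °C, or under 10% at both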;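 note: 300 nL library stock went into each well; scaled to the means of positive and negative controls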
HCMV NEC inh: inhibitors of HCMV UL50-UL53 nuclear egress complex interaction. AID 1918969. inhibition, % (test concentration not listed). hit rate 0.15% among 190,000. HTRF UL50-UL53 interaction, normalized percent inhibition;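 active = both replicates at 50% or more, plus weaker picks with an unusually low signal ratio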;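 note: stock transfer was 100 nL into about 20 µL; 0% = negative control wells and 100% = wells with untagged competitor protein; inactives centre near -12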
GIV-Gai inh: blocks GIV peptide binding to rat Galpha-i3. P08753. Galpha-i3/FITC-GIV peptide fluorescence polarization, 90 min; hits give low values; scaled: aluminum fluoride 0%, vehicle 100%. percent of control (FP), % (concentration not given with the values). hit rate 0.42% among 210,000. AID 1224905;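 active = replicate mean at 85% of control or lower, very high polarization wells dropped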;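 note: wells of about 15 µL received 100 nL stock; the first replicate is given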
Target sequence (P08753 whole entry, looked up): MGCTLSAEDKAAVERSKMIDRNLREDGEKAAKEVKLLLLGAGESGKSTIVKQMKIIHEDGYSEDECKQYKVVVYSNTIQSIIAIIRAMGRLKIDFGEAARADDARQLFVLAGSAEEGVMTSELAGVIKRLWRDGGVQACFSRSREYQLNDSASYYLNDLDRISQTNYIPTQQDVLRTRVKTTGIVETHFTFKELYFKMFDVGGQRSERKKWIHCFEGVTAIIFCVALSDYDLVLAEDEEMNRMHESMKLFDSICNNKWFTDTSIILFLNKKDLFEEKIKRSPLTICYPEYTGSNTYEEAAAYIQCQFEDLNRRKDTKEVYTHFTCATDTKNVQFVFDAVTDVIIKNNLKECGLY
Sa growth 42C second temp: second read-out of Sa growth 42C, no call of its own (marks repeat the call); relative growth, %; measured here: growth at 30 °C;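 optical density after 20 h as mean of two plates; 100% = untreated growth and lower means inhibition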
* hit, by the source's call; & = joins results of further samples.

Sample of the layout, two compounds:
`CC(C)NC(=S)N1CCN(C/C=C/c2ccccc2)CC1` gave Sa growth 42C 107, HCMV NEC inh -7, GIV-Gai inh 105 and Sa growth 42C second temp 94.
For O=C(/C=C/c1ccc(-c2cccs2)s1)Oc1ccc(Cl)cc1 the results were Sa growth 42C 91, HCMV NEC inh -14, GIV-Gai inh 113 and Sa growth 42C second temp 96.

The whole of this part, previewed entries included:
`CC(C)NC(=S)N1CCN(C/C=C/c2ccccc2)CC1` gave Sa growth 42C 107, HCMV NEC inh -7, GIV-Gai inh 105 and Sa growth 42C second temp 94.
For O=C(/C=C/c1ccc(-c2cccs2)s1)Oc1ccc(Cl)cc1 the results were Sa growth 42C 91, HCMV NEC inh -14, GIV-Gai inh 113 and Sa growth 42C second temp 96.
Screening CN(C)c1ccc(C(CNC(=O)C2CCCCC2)N2CCOCC2)cc1 (stereo unspecified) returned Sa growth 42C 101, HCMV NEC inh -11, GIV-Gai inh 106 and Sa growth 42C second temp 95.
Screening COc1cc(/C=C2\C(=O)NC(=O)N(C(C)(C)C)C2=O)cc(OC)c1O returned Sa growth 42C 101, HCMV NEC inh -8, GIV-Gai inh 124 and Sa growth 42C second temp 92.
For O=C1CCC(=O)N1c1ccc(S(=O)(=O)N2CCN(c3nccc(C(F)(F)F)n3)CC2)cc1 the results were Sa growth 42C 105, HCMV NEC inh 0, GIV-Gai inh 101 and Sa growth 42C second temp 99.
For Cc1ccc(NC(=O)CSc2nnc(COc3ccc(Cl)cc3)o2)c(C)c1 the results were Sa growth 42C 105, HCMV NEC inh -1, GIV-Gai inh 101 and Sa growth 42C second temp 80.
`CN(Cc1ccccc1)S(=O)(=O)c1ccc(CN2C(=O)c3cccnc3C2=O)cc1` gave Sa growth 42C 84, GIV-Gai inh 101 and Sa growth 42C second temp 89.
O=C(Nc1ccccc1)N(CC1CCCO1)C1CCS(=O)(=O)C1 (stereo unspecified) was read as Sa growth 42C 94, HCMV NEC inh -14&-24, GIV-Gai inh 107&103 and Sa growth 42C second temp 88.
Screening CCOC(=O)c1c(NC(C)=O)sc2c1CCCC2O (stereo unspecified) returned Sa growth 42C 105, HCMV NEC inh -9, GIV-Gai inh 103 and Sa growth 42C second temp 94.
For O=C(O)CC1S/C(=N\N=C2CCCCCCC2)N(c2ccccc2)C1=O (stereo unspecified) the results were Sa growth 42C 86, HCMV NEC inh -1, GIV-Gai inh 114 and Sa growth 42C second temp 96.
`COc1cccc(CNC(=O)c2cnn(-c3cccc(F)c3)c2-n2cccc2)c1OC` gave Sa growth 42C 95, HCMV NEC inh 8, GIV-Gai inh 100 and Sa growth 42C second temp 102.
`O=C(Nc1nc(-c2ccc(Oc3ccccc3)cc2)cs1)c1sc2ccccc2c1Cl` gave HCMV NEC inh -7 and GIV-Gai inh 103.
`NC(=S)N1CCN=C1c1ccccc1` gave Sa growth 42C 96, HCMV NEC inh -14, GIV-Gai inh 104 and Sa growth 42C second temp 93.
`Cc1nn(-c2ccccc2)nc1C(=O)Nc1cc(Cl)cc(Cl)c1` gave Sa growth 42C 94, GIV-Gai inh 100 and Sa growth 42C second temp 81.
N/C(CC(=O)Nc1cccc(C(F)(F)F)c1)=N/O was read as Sa growth 42C 100, GIV-Gai inh 102 and Sa growth 42C second temp 82.
For COc1ccc(-c2nc3c(c(SCc4ccc(Br)cc4)n2)Cc2c(CO)cnc(C)c2O3)cc1 the results were Sa growth 42C 108, GIV-Gai inh 100 and Sa growth 42C second temp 95.
CCn1c(Cc2ccccc2)nnc1SC(C#N)Cc1ccc(C)cc1 (stereo unspecified) was read as Sa growth 42C 87, HCMV NEC inh 1 and Sa growth 42C second temp 84.
Screening O=C(/C=C/c1cccs1)N1CCCCCC1 returned Sa growth 42C 89, HCMV NEC inh -76 and Sa growth 42C second temp 86.
Screening CCc1c(C)nc2nc[nH]n2c1=O returned Sa growth 42C 94, GIV-Gai inh 114 and Sa growth 42C second temp 91.
O=C(NCCc1nc2ccccc2[nH]1)c1cccs1 was read as Sa growth 42C 95, HCMV NEC inh -10 and Sa growth 42C second temp 76.
For CCc1c(C)nc2cc(-c3ccc(Cl)cc3)[nH]n2c1=O the results were Sa growth 42C 93, HCMV NEC inh -10 and Sa growth 42C second temp 85.
`CCOC(=O)C1=C(C)NC(=O)NC1/C=C/c1ccccc1` (stereo unspecified) gave Sa growth 42C 100, HCMV NEC inh -30, GIV-Gai inh 103 and Sa growth 42C second temp 80.
`CN1C(=O)C2C(c3ccc(N(C)C)cc3)NN(Cc3ccccc3)C2C1=O` (stereo unspecified) gave Sa growth 42C 106, HCMV NEC inh -22, GIV-Gai inh 102 and Sa growth 42C second temp 93.
COc1ccc(-c2nnc3c4ccccc4c(C)nn23)cc1S(=O)(=O)N1CCN(CCO)CC1 was read as Sa growth 42C 97, HCMV NEC inh 0, GIV-Gai inh 109 and Sa growth 42C second temp 80.
`CC(C)c1ccc(CN(Cc2ccco2)c2cnc(S(C)(=O)=O)nc2C(=O)Nc2ccccc2)cc1` gave Sa growth 42C 99, HCMV NEC inh -30, GIV-Gai inh 97 and Sa growth 42C second temp 83.
`O=S(=O)(NCc1ccccc1Cl)c1ccc(-c2cnc(C3CC3)o2)cc1` gave Sa growth 42C 70, GIV-Gai inh 103 and Sa growth 42C second temp 56.
CC(C)(C)NC(=O)COc1ccc2oc3c(c2c1)CCCC3 was read as Sa growth 42C 98, HCMV NEC inh -6 and Sa growth 42C second temp 103.
`COc1cccc(NC(=O)CSc2nc3ccccc3n2C)c1` gave Sa growth 42C 113, HCMV NEC inh -20, GIV-Gai inh 103 and Sa growth 42C second temp 84.
CNC(=O)NC(=O)CSc1nnc(-c2ccccc2)o1 was read as Sa growth 42C 83, HCMV NEC inh -13 and Sa growth 42C second temp 94.
For COc1ccc(-n2c(-c3ccc(Cl)cc3)cc3c2CC(C)(C)CC3=O)c(OC)c1 the results were Sa growth 42C 86, HCMV NEC inh -27, GIV-Gai inh 101 and Sa growth 42C second temp 66.
For CCN(C(=O)c1cc2c(C)nc3ccccc3c2o1)c1cc(Cl)ccc1OC the results were Sa growth 42C 91, HCMV NEC inh -14, GIV-Gai inh 96 and Sa growth 42C second temp 79.
For Cc1ccc(NC(=O)CC(c2ccccc2)c2ccccc2)cc1C the results were Sa growth 42C 96, HCMV NEC inh 0 and Sa growth 42C second temp 118.
CC(OC(=O)c1ccncc1)C(=O)NC1CCCC1 (stereo unspecified) was read as Sa growth 42C 88, HCMV NEC inh -13 and Sa growth 42C second temp 88.
Cc1ccc(NC(=O)Cn2cccc2)cc1 was read as Sa growth 42C 101, GIV-Gai inh 99 and Sa growth 42C second temp 93.
For CC(=O)Nc1ccc(/C=N/NC(=O)CN2CCSCC2)cc1 the results were Sa growth 42C 82, HCMV NEC inh -21, GIV-Gai inh 110 and Sa growth 42C second temp 105.
`Cc1ccsc1CN(C(=O)c1oc2cc(Br)ccc2c1C)C1CCS(=O)(=O)C1` (stereo unspecified) gave Sa growth 42C 118, HCMV NEC inh 1, GIV-Gai inh 101 and Sa growth 42C second temp 73.
`Cc1c(C(=O)N2CCN(S(=O)(=O)c3ccccc3)CC2)oc2ccc(Br)cc12` gave Sa growth 42C 95, HCMV NEC inh -16 and Sa growth 42C second temp 95.
Screening O=C(O)C1C2C=CC3(O2)C1C(=O)N(Cc1ccccc1)C3Cc1ccccc1 (stereo unspecified) returned Sa growth 42C 91, HCMV NEC inh -8, GIV-Gai inh 98 and Sa growth 42C second temp 82.
For Nc1ncnc2nc(SCc3nc4ccccc4c(=O)n3-c3cccc(C(F)(F)F)c3)[nH]c12 the results were HCMV NEC inh -9 and GIV-Gai inh 96.
For N#Cc1ccccc1NC(=O)C(=O)NCC(c1cccnc1)N1CCN(c2ccccc2)CC1 (stereo unspecified) the results were Sa growth 42C 101, HCMV NEC inh 3, GIV-Gai inh 101 and Sa growth 42C second temp 93.

Part of the list above in order of number of heavy atoms, low to high.
CC(C)(C)NC(=O)COc1ccc2oc3c(c2c1)CCCC3 was read as Sa growth 42C 98, HCMV NEC inh -6 and Sa growth 42C second temp 103.
`Cc1ccsc1CN(C(=O)c1oc2cc(Br)ccc2c1C)C1CCS(=O)(=O)C1` (stereo unspecified) gave Sa growth 42C 118, HCMV NEC inh 1, GIV-Gai inh 101 and Sa growth 42C second temp 73.
For Nc1ncnc2nc(SCc3nc4ccccc4c(=O)n3-c3cccc(C(F)(F)F)c3)[nH]c12 the results were HCMV NEC inh -9 and GIV-Gai inh 96.
For N#Cc1ccccc1NC(=O)C(=O)NCC(c1cccnc1)N1CCN(c2ccccc2)CC1 (stereo unspecified) the results were Sa growth 42C 101, HCMV NEC inh 3, GIV-Gai inh 101 and Sa growth 42C second temp 93.

Additional compounds follow.
For CC1CCCN(C(=O)Cn2cnc3c(nc4n3CCCCC4)c2=O)C1 (stereo unspecified) the results were HCMV NEC inh 8 and GIV-Gai inh 97.
Screening O=C(O)CCc1nc(-c2ccc(C(F)(F)F)cc2)no1 returned Sa growth 42C 114, HCMV NEC inh 2, GIV-Gai inh 96 and Sa growth 42C second temp 94.
For COc1ccc2nc(SC)nc(C)c2c1 the results were Sa growth 42C 88, HCMV NEC inh -63, GIV-Gai inh 105 and Sa growth 42C second temp 83.
`O=C(C1=Cc2sc3c(c2CS1)CCCC3)N1CCC2(CC1)OCCO2` gave Sa growth 42C 107, HCMV NEC inh -84, GIV-Gai inh 122 and Sa growth 42C second temp 43.
Cc1ccc(S(=O)(=O)CCC(=O)O)cc1 was read as Sa growth 42C 78, HCMV NEC inh 2 and Sa growth 42C second temp 89.
For CCN(C(=O)CN1C(=O)COc2ccccc21)c1nc2c(C)cccc2s1 the results were Sa growth 42C 137, HCMV NEC inh -18 and Sa growth 42C second temp 87.
Cc1nc(-c2ccc(S(=O)(=O)N3CCN(Cc4ccccc4)CC3)s2)cs1 was read as Sa growth 42C 91, GIV-Gai inh 101 and Sa growth 42C second temp 88.
For CCC(=O)Nc1ccc2nc(C)[nH]c2c1 the results were Sa growth 42C 109, HCMV NEC inh -16, GIV-Gai inh 99 and Sa growth 42C second temp 93.
For Cn1cnc(S(=O)(=O)N2CCC(C(=O)NCCC3=CCCCC3)CC2)c1 the results were HCMV NEC inh -28 and GIV-Gai inh 108.
`COCCNC(=O)c1ccccc1NC(=O)c1cccc(C)c1` gave Sa growth 42C 111, HCMV NEC inh -17, GIV-Gai inh 100 and Sa growth 42C second temp 83.
Screening O=C(OCc1ccc(F)cc1)c1ccccc1F returned Sa growth 42C 101, HCMV NEC inh -16 and Sa growth 42C second temp 91.
Screening CC(=O)OC[C@H]1O[C@@H](Oc2ccccc2)[C@H](OC(C)=O)[C@@H](OC(C)=O)[C@H]1OC(C)=O returned Sa growth 42C 96, HCMV NEC inh -40, GIV-Gai inh 105 and Sa growth 42C second temp 86.
`CCCCOC(=O)CSc1nc(N)c(C#N)c(-c2ccc(OC)cc2)c1C#N` gave HCMV NEC inh -26 and GIV-Gai inh 102.
`Cc1cc(F)ccc1NC(=O)C(C)n1c2ccccc2c2nc(=O)cc(C)n21` (stereo unspecified) gave HCMV NEC inh -2 and GIV-Gai inh 107.
For O=c1cc(-c2ccccc2)n(-c2ccccc2)cn1 the results were Sa growth 42C 87, HCMV NEC inh 21 and Sa growth 42C second temp 122.
Screening CN(C)C(=O)c1c(NC(=O)c2ccccc2F)sc2c1CCCC2 returned Sa growth 42C 102, HCMV NEC inh -22, GIV-Gai inh 106 and Sa growth 42C second temp 92.
Screening FC(F)(F)c1ccc(-c2noc(-c3ccc(Cl)nc3)n2)cc1 returned HCMV NEC inh -14 and GIV-Gai inh 102.
`CCOc1ccccc1-n1nnc(-c2nc(-c3ccccc3C)no2)c1C` gave Sa growth 42C 91, GIV-Gai inh 105 and Sa growth 42C second temp 87.
Cc1cccc(OCc2nc(C)c(C(=O)NCC(C)C)s2)c1 was read as HCMV NEC inh -3 and GIV-Gai inh 106.
Screening COC(=O)CSc1nnc2n1CCN2c1ccc(OC)cc1 returned HCMV NEC inh 12 and GIV-Gai inh 109.
Screening O=C(COc1ccccc1)Nc1ccn(Cc2ccccc2)n1 returned Sa growth 42C 111, HCMV NEC inh -36, GIV-Gai inh 108 and Sa growth 42C second temp 101.
CCOC(=O)Nc1nc2ccc(OC)cc2s1 was read as Sa growth 42C 112, GIV-Gai inh 106 and Sa growth 42C second temp 86.
Screening CC(=O)OCc1ccccc1S(=O)(=O)c1ccccc1COC(C)=O returned Sa growth 42C 126, HCMV NEC inh -2, GIV-Gai inh 106 and Sa growth 42C second temp 87.
Cc1cccc(NC(=O)c2ccc(CNc3c(NC4CCCC4)c(=O)c3=O)cc2)c1 was read as HCMV NEC inh -29 and GIV-Gai inh 102.
`COc1cc(C2CC(=O)NC(SCC(=O)Nc3ccc(Br)cc3)=C2C#N)ccc1OCc1ccccc1` (stereo unspecified) gave HCMV NEC inh -27 and GIV-Gai inh 99.
Cc1cc2c(n1-c1ccc(C(=O)NCCc3cccs3)cc1)CCCC2 was read as Sa growth 42C 101, HCMV NEC inh -32, GIV-Gai inh 115 and Sa growth 42C second temp 75.
`COc1cccc(CNC(=O)c2ccc3c(c2)nc2n3CCCCC2)c1OC` gave Sa growth 42C 77, GIV-Gai inh 100 and Sa growth 42C second temp 89.
O=C(NC1CCCCC1)N1CCC(c2nc(-c3ccc(F)cc3)no2)CC1 was read as HCMV NEC inh 2 and GIV-Gai inh 106.
`CCOc1ccc(NC(=O)NC(=O)N(C(C)C)S(C)(=O)=O)cc1` gave Sa growth 42C 115, HCMV NEC inh 11 and Sa growth 42C second temp 92.

Hits appear at their usual frequency. About 0.79% of those tested had a hit in this group.
